Sfp PPTase inh: blocks B. subtilis Sfp PPTase activity; Q9F4F7; Biochemical Sfp PPTase activity, qHTS; Potency, µM, without a hit: max response, negative = inhibition, hits mostly inhibitors; 310,000 compounds, 3.5% hits; AID 1490; active means well fitted inhibition curve with a large enough effect; inconclusive means small, poorly fitted or top-dose-only effect, or another doubt; inactive means no such curve, though single readings can be large or run the other way;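 further: the enzyme is Sfp with the accession as filed and its product quenches rhodamine fluorescence; potency means the concentration at half of the fitted maximal effect; 0% = enzyme reaction without inhibitor and -100% = no enzyme wells; top concentration of the series not given in the record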
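Fluorescence-quenching assay with 15 nM Sfp, 5 uM rhodamine-CoA and 12.5 uM BHQ-2-labelled ybbR peptide in pH 7.6 Hepes/MgCl2 buffer. Enzyme was pre-incubated with compound for 15 min at room temperature. Rate was taken from the 30-min fluorescence change (525/598 nm).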
ClpP mod: qHTS Assay for Activators of ClpP; 340,000 compounds, 1.9% hits; Potency, µM (doses to about 57.5 µM), for the others: at the highest dose activity change, negative = active; AID 651965, 2013; purified B. subtilis ClpP, FRET peptide cleavage, 20 min; active = well fitted falling curve with a large enough effect; inconclusive = small, poorly fitted or top-dose-only effect; inactive = no such curve, though single readings can be large or run the other way; further: potency means the concentration at half of the fitted maximal effect; the source files actives as falling curves though it sought activators and does not explain the sign; nearly all actives have a fitted effect of over 65% in size; many hits overshoot -100%
Target sequence (P80244 whole entry, looked up): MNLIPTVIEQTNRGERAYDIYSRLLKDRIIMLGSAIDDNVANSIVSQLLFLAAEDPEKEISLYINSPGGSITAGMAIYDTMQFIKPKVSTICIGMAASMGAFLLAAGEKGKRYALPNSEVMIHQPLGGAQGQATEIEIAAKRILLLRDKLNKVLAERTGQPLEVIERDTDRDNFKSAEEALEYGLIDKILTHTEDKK
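ClpP 10 microg/mL final, pH 8 Tris/KCl buffer with BSA, glycerol, Tween-20; compound pinned in; FRET-FV substrate; RT 20 min; Ex320/Em430; ΔFRET vs ADEP 5.8 microM, DMSO, no enzyme.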
Menin MLL FP FL: menin-MLL binding inhibition, fluorescein peptide. 290,000 tested, under 10 active. AID 1766. Fluorescence polarization, fluorescein-MLL peptide displacement from menin. FP activity change, % at 61.4 µM; inconclusive = falling polarisation curve, or a change in total fluorescence; inactive = total fluorescence flat and polarisation flat or rising; no compound was filed as active; the % refers to the polarisation; negative = inhibition;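 further: % of control where 0% means no effect; inhibitors lower the polarisation; unlabelled MLL peptide was the positive control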
gsp ag: activates gsp, the McCune-Albright syndrome mutation. AID 624287. Potency, µM (titrated, usually from 76.9 µM), without a hit: at the highest dose activation (cAMP increase), actives largely listed as activators. 340,000 compounds, 0.13% hits. gsp mutant cells, cAMP HTRF, 30 min; control for the full effect not named in the record; active = well fitted activation curve with a large enough effect; inconclusive = small, poorly fitted or top-dose-only effect, or another doubt; inactive = no such curve, though single readings can be large or run the other way; cell line not stated here;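 further: phosphodiesterase inhibitor Ro 20-1724 added with compounds to block cAMP breakdown; potency means the concentration at half of the fitted maximal effect; nearly all actives have a fitted effect of over 60% in size; about a fifth of the inactives were tested at one dose only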
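Cells stably selected in G418 were plated at 2000/well, grown 16-24 hr, then given compounds in DMSO with the PDE inhibitor […] (300 uM solution added) for 30 min at 37C; cAMP was read by HTRF.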
TRPV1 PAM: human TRPV1 potentiation; 320,000 compounds, 0.02% hits; potentiation, % at 8.33 µM; TRPV1-expressing cells, Fluo-8 calcium influx, capsaicin EC20 potentiation; host cell line not named in the record; control for the full effect not named in the record; Q8NER1; active means potentiation above 80%; inconclusive means 30% to 80%; inactive means below 30%; further: 0% is about no effect
Target sequence (Q8NER1 whole entry, looked up): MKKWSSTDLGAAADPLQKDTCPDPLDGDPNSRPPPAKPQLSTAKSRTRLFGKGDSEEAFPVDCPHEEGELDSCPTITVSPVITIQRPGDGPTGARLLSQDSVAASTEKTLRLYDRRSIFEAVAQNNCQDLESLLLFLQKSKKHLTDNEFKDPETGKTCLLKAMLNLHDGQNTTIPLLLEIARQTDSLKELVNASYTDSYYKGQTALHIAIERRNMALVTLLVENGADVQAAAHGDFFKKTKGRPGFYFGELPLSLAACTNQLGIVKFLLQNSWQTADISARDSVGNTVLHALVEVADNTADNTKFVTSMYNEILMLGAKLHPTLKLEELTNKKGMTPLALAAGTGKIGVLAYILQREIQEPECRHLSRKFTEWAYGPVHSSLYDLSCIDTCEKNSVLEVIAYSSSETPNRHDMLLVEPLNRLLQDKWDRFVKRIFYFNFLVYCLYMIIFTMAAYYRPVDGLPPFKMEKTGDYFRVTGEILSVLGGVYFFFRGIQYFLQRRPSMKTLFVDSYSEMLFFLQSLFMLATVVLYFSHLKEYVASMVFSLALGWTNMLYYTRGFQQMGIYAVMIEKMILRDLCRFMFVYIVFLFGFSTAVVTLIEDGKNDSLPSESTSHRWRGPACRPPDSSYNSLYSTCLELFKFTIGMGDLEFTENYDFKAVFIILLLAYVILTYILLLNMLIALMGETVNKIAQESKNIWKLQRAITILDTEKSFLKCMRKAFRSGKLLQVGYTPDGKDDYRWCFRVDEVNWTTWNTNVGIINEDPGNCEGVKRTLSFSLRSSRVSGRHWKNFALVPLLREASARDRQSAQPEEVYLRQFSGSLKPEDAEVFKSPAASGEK
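Cells expressing TRPV1 were dye-loaded with Fluo-8 and read kinetically: 10 s baseline, 3 min after compound (agonist portion), then 2 min after EC20 capsaicin (allosteric enhancer portion). Calcium-bound dye fluorescence at 480/520 nm.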
gsp antagonist: antagonizes gsp, the McCune-Albright syndrome mutation; gsp-mutant cells, cAMP HTRF, 30 min; control for the full effect not named in the record; Potency, µM (series often up to 76.9 µM), without a hit: at the highest dose activity change, negative = inhibition, hits mostly inhibitors; 340,000 compounds, 0.4% hits; AID 624288; active = falling curve of any shape with a large fitted effect; inconclusive = falling curve, mostly with a smaller effect; inactive = flat or rising curve; cell line not stated here;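 further: intracellular cAMP measured with PDE inhibitor Ro 20-1724 present during compound exposure; potency means the concentration at half of the fitted maximal effect; on the % scale 0 is the no-effect control and ±100 the full control effect; nearly all actives have a fitted effect of over 65% in size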
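Measurement of cellular cAMP by homogeneous time-resolved fluorescence following a 30 min compound exposure at 37C. The PDE inhibitor […] was present throughout; the assay buffer was DPBS with 0.05% BSA and 0.005% Tween 20.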
D2 potentiator: positive allosteric modulators of human D2 dopamine receptor. DiscoveRx D2 beta-arrestin cells, luminescence, 90 min; 100% = 57 uM dopamine signal. 360,000 compounds, 0.23% hits. potentiation, % (no concentration beside the values). P14416; active = potentiation of 50% or more; inconclusive = 30% to 50%; inactive = 30% or less;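 further: compound concentration not given in the record; tested on top of an EC20 dose of dopamine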
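D2 cells co-treated with compound plus 50 nM dopamine (EC20) for 90 min at 37 deg C to detect potentiation. Beta-arrestin recruitment was read as enzyme-fragment luminescence after 1 h at ambient temperature. Full response was set by 57 uM dopamine.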
Numbers without * were called inactive; ? = inconclusive; / = not tested or not shown; & = joins results of further samples; [ ] = another dose, or the depositor's remark.

SMILES	Sfp PPTase inh	ClpP mod	Menin MLL FP FL	gsp ag	TRPV1 PAM	gsp antagonist	D2 potentiator
O=C(Cc1cccc(NC(=O)C2CCN(C(=O)C3CCCCC3)CC2)c1)Nc1cccc(C(=O)N2CCOCC2)c1	/	-1.4%	/	/	/	12%	-4
CCOC(=O)C1=C(COC(=O)CCOc2cc(C)ccc2C)NC(=O)NC1C (stereo not given)	/	0.4%	/	-3%	-1	-5%	-14
O=C(O)CSc1nc2ccc(C(=O)c3ccccc3)cc2[nH]1	11%	-3.4%	-3.2	11%[15.4 µM]	-3	-3%	-1
COc1ccc(Br)cc1CN(C)CC(=O)NCCc1ccccc1	-84%	/	-1.0	-11%[15.4 µM]	-8	1%	0
CC(CN1CCCCC1)OC(=O)C(C)(c1ccccc1)c1ccccc1 (stereo not given)	-11%	-1.9%	2.1	-17%	11	5%	-43
CC(=O)c1ccc(N2CCN(C(=O)Nc3ccc(F)cc3F)CC2)cc1	7%	-7.1%	0.3	-32%	-15	-2%	-3
Cc1cccc(C)c1OCC(=O)OCC(=O)c1ccc2c(c1)NC(=O)CO2	-10%	2.8%	2.1	-1%	-17	-14%	6
COc1ccc(S(=O)(=O)N(C)CC(=O)NCc2ccco2)cc1Cl	6%	0.1%	-0.9	-49%[inhibitor]	1	12%	-6
COc1cccc(NC(=O)CN(C)C(=O)Cc2ccc3c(c2)OCCO3)c1	/	0.7%	/	-2%[15.4 µM]	8	13%	5
CC(=O)c1c(Nc2cccc(F)c2)oc(C)cc1=O	5%	0.8%	16	-31%[inhibitor]	3	12%	-4
COc1ccc(CCC(C)N2CCOCC2)cc1 (stereo not given)	14%	/	3.2	-34%[inhibitor]	-5	20%	-7
C=CCn1c(CNS(=O)(=O)c2ccc(F)cc2)n[nH]c1=S	-15%	-0.1%	/	-21%	-1	1%	-9
CC1(C)NC(=O)N(CCCCSc2ccc(Cl)cc2)C1=O	-19%	-1.4%	3.4	-5%	2	?	-7
O=C(COC(=O)C1COc2ccccc2O1)Nc1ccc2c(c1)CCC2 (stereo not given)	11%	-0.1%	4.6	11%	23	-2%	-11
O=C(O)CSc1ccc2ccccc2n1	0%	-6.8%	7.2	?	-26	7%	-6
COc1cccc(-n2c(SCC(=O)NCc3ccco3)nnc2-c2c[nH]c3ccccc23)c1	2%	-0.3%	-1.5	-29%	-2	-13%	4
Cc1ccc2c(C)c(C(=O)NCc3ccc(S(N)(=O)=O)cc3)oc2c1C	-3%	/	3.9	-3%[15.4 µM]	8	10%	-6
Cc1cc(C)cc(NC(=O)Cn2cnc3c(nnn3Cc3ccc(F)cc3)c2=O)c1	-7%	-2.0%	4.9	1%	7	8%	0
COCCCN1CC(=O)N2Cc3[nH]c4ccccc4c3C[C@H]2C1=O	6%	3.7%	-7.4	?	5	3%	-1
CCC(C)Nc1nc(OC)nc(N(C)C#N)n1 (stereo not given)	-6%	2.2%	-4.5	9%	1	0%[15.4 µM]	-12
COc1cccc(C(=O)Nc2cccnc2)c1OC	13%	/	-9.7	?	13	1%	-4
C=CCN=c1scc(-c2ccc3c(c2)NC(=O)CO3)n1/N=C(\C)c1ccccn1	4%	/	12	7%[15.4 µM]	-5	?	-14
O=C(CCCNS(=O)(=O)c1cccc2nsnc12)NCc1ccc(F)cc1	-2%	-2.1%	6.2	-8%	-14	0%	-27
COC(=O)[C@@H]1C2CCC(C(=O)Nc3ccccc3)(CC2)[C@@H]1C(=O)OC	3%	-22%	1.5	6%	-14	-3%	-6
O=C1NC2(CCCCCC2)C(=O)N1Cc1c(F)cccc1Cl	16%	0.6%	-2.4	-2%	10	-3%	-10
COc1cccc(NC(=O)CN(C)C(=O)CCCNC(=O)c2ccc(Cl)cc2)c1	/	-1.7%	/	?	5	-5%	-8
O=C1N=C(N2CCC(Cc3ccccc3)CC2)S/C1=C/c1cn[nH]c1-c1ccccc1	12%	-21%	4.1	-71%[inhibitor]	29	-20%	0
CCc1ccc2[nH]c3nc(SCCN4CCOCC4)nnc3c2c1	-28%	-1.5%	0.2	7%	-13	7%	-12
Cc1cccc(NC(=O)CCCSc2nc3ccccc3[nH]2)c1	-2%	/	7.0	-13%[15.4 µM]	-26	?	-3
Cc1cc(C(=O)Cn2nc(C(=O)O)c3ccccc3c2=O)c(C)n1CCc1ccc(Cl)cc1	-1%	-4.6%	5.3	10%	-8	-4%	4
CCN1C(=O)C(=O)N(CC(=O)N2CCN(c3ccccc3)CC2)C1=O	/	/	/	39%[15.4 µM]	8	2%	-10
CC(C)CN(C(=O)CN(C)C(=O)Cc1c(F)cccc1Cl)c1c(N)n(CC(C)C)c(=O)[nH]c1=O	/	-2.1%	/	?	/	/	-22
Nc1ccccc1N1CCN(C(=O)c2ccccc2)CC1	7%	0.4%	-3.0	2%	6	-16%	11
COc1ccc([C@H]2CC(=O)C=C(/C=C/c3ccccc3)C2)cc1OC	/	-2.8%	/	-12%	2	?	3
CCOC(=O)C(C(=O)OCC)c1cc(Br)c2noc3c2c1C(=O)c1ccccc1-3	0.71µM*	-0.4%	?	5%	?	8%	91*
O=C1COc2ccc(C(=O)COC(=O)c3ccc(Cl)cc3[N+](=O)[O-])cc2N1	/	0.3%	/	-10%[15.4 µM]	0	5%	52*
O=C(CN1CCN(c2ccc(Cl)cc2)CC1)c1ccccc1	-3%	2.7%	1.3	-63%[inhibitor]	-6	4%	-31
CCOc1ccccc1CN1CCC(O)CC1	-12%	-2.1%	3.3	?	3	8%	-7
CCn1nnnc1SCC(=O)N1CCN(Cc2ccc3c(c2)OCCO3)CC1	/	1.4%	/	-25%	26	-1%	-17
CCOC(=O)c1c(NC(=O)Cn2nc(C(F)(F)F)cc2C)sc2c1CCC2	-3%	-9.4%	9.6	1%	4	-25%	-12
Cc1nc(SCC(=O)NCc2ccc3c(c2)OCO3)nc(C)c1C	/	0.8%	/	16%	/	-1%	-9
Cc1ccc(CN2CCN(c3ncccn3)CC2)o1	-3%	-8.1%	2.5	29%	2	30%	?
CCCCn1c(CN2CCN(CCO)CC2)nc2ccccc21	6%	1.2%	2.5	-1%	3	6%	-5
COc1ccc2[nH]c(=O)c(CN(C(=O)C3CCCO3)c3ccc(C)c(C)c3)cc2c1 (stereo not given)	6%	/	4.0	?	-1	-10%	-2
Nc1c(C(=O)N/N=C/c2ccccc2)cnn1-c1ccccc1	-2%	2.3%	7.0	-8%	1	-15%	-11
NS(=O)(=O)c1ccc(CCNC(=O)C2CCCN2S(=O)(=O)c2cccc3nsnc23)cc1 (stereo not given)	8%	-0.3%	/	6%	-8	1%	-13
CCCSc1nc2c(c(=O)n1-c1ccc(OCC)cc1)SCC2	-5%	-2.9%	2.8	-3%	-6	1%	-8
CN(CC(=O)Nc1ccc(F)cc1)C(=O)Cn1cnc2ccc([N+](=O)[O-])cc2c1=O	/	-2.0%	/	3%[15.4 µM]	/	5%	-1
O=C(CSc1ncn[nH]1)c1ccc2c(c1)OCO2	-5%	5.0%	2.6	-14%	8	1%	-2
CC(=O)Nc1ccc(NC(=O)CSc2nnc(CNc3ccc(F)cc3)n2CC2CCCO2)cc1 (stereo not given)	5%	/	0.5	-1%[15.4 µM]	-14	15%	3
COc1ccc(CCNC(=O)CCCN2C(=O)c3ccccc3C2=O)cc1OC	7%	0.1%	-2.4	2%	/	3%	-4
CC(CN1CC(=O)NC(=O)C1)N1CC(=O)NC(=O)C1 (stereo not given)	-13%	1.2%&-0.2%	-4.5	-2%	/	/	2
Cc1cc(N/N=C/c2ccc(F)cc2)nc(NCc2ccccc2)n1	16µM*	1.9%	-7.6	2%[15.4 µM]	-15	-2%	-15

Copied from the listing (11 entries):
SMILES	Sfp PPTase inh	ClpP mod	Menin MLL FP FL	gsp ag	TRPV1 PAM	gsp antagonist	D2 potentiator
CCOC(=O)c1c(NC(=O)Cn2nc(C(F)(F)F)cc2C)sc2c1CCC2	-3%	-9.4%	9.6	1%	4	-25%	-12
Cc1nc(SCC(=O)NCc2ccc3c(c2)OCO3)nc(C)c1C	/	0.8%	/	16%	/	-1%	-9
Cc1ccc(CN2CCN(c3ncccn3)CC2)o1	-3%	-8.1%	2.5	29%	2	30%	?
CCCCn1c(CN2CCN(CCO)CC2)nc2ccccc21	6%	1.2%	2.5	-1%	3	6%	-5
COc1ccc2[nH]c(=O)c(CN(C(=O)C3CCCO3)c3ccc(C)c(C)c3)cc2c1 (stereo not given)	6%	/	4.0	?	-1	-10%	-2
Nc1c(C(=O)N/N=C/c2ccccc2)cnn1-c1ccccc1	-2%	2.3%	7.0	-8%	1	-15%	-11
NS(=O)(=O)c1ccc(CCNC(=O)C2CCCN2S(=O)(=O)c2cccc3nsnc23)cc1 (stereo not given)	8%	-0.3%	/	6%	-8	1%	-13
CCCSc1nc2c(c(=O)n1-c1ccc(OCC)cc1)SCC2	-5%	-2.9%	2.8	-3%	-6	1%	-8
CN(CC(=O)Nc1ccc(F)cc1)C(=O)Cn1cnc2ccc([N+](=O)[O-])cc2c1=O	/	-2.0%	/	3%[15.4 µM]	/	5%	-1
O=C(CSc1ncn[nH]1)c1ccc2c(c1)OCO2	-5%	5.0%	2.6	-14%	8	1%	-2
CC(=O)Nc1ccc(NC(=O)CSc2nnc(CNc3ccc(F)cc3)n2CC2CCCO2)cc1 (stereo not given)	5%	/	0.5	-1%[15.4 µM]	-14	15%	3
